# Bioassay records: PubChem, National Center for Advancing Translational Sciences (NCATS)
# CtBP-E1A inh – qHTS Assay for Inhibitors of the CtBP/E1A Interaction; CtBP / adenovirus E1A interaction (AlphaScreen); AlphaScreen GST-E1A/His-CtBP binding, 1536-well; hits give low values; control for the full effect not named in the record; activity change, % (test concentration not listed); actives 0.49% (n = 340,000); AID 651724, 2012; in the data active means activity change below about -65%; inconclusive means about -30% to -65%; inactive means above about -30%; note: % is set by controls: 0 for no effect and ±100 for the full control effect; compound concentration not given in the record
#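 Steps: dispense buffer (Tris pH 8.0, NaCl 300 mM, TCEP 1 mM, BSA, Tween 20); add 5X protein mix (GST-E1A, His-CtBP, 125 nM each); pin 23 nL compound; 2 h at 37 °C, dark; add 5X beads (50 ug/mL); 1 h; read.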
# D2 PAM – Beta-Arrestin HTS for Positive Allosteric Modulators of the Human D2 Dopamine Receptor: Potentiators; D(2) dopamine receptor (Homo sapiens), P14416; DiscoveRx D2 beta-arrestin cells, luminescence, 90 min; 100% = 57 uM dopamine signal; potentiation, % (no concentration beside the values); actives 0.23% (n = 360,000); active = potentiation of 50% or more; inconclusive = 30% to 50%; inactive = 30% or less;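 note: compound concentration not given in the record; tested on top of an EC20 dose of dopamine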
#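 PathHunter beta-arrestin assay in DiscoveRx D2 cells. Compounds were added with an EC20 of dopamine (50 nM final) for 90 min at 37 deg C. Luminescence was read 1 h after detection reagent, with 57 uM dopamine as the EC100 control.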
# TRPV1 potentiator – HTS Assay for Compounds that Act as Potentiators of the Vanilloid Receptor 1 | actives 0.02% (n = 320,000) | Transient receptor potential cation channel subfamily V member 1 (Homo sapiens), Q8NER1 | TRPV1-expressing cells, Fluo-8 calcium influx, capsaicin EC20 potentiation; host cell line not named in the record; control for the full effect not named in the record | potentiation, % at 8.33 µM; active means potentiation above 80%; inconclusive means 30% to 80%; inactive means below 30%; note: 0% is about no effect
# Target sequence (Q8NER1 whole entry, looked up): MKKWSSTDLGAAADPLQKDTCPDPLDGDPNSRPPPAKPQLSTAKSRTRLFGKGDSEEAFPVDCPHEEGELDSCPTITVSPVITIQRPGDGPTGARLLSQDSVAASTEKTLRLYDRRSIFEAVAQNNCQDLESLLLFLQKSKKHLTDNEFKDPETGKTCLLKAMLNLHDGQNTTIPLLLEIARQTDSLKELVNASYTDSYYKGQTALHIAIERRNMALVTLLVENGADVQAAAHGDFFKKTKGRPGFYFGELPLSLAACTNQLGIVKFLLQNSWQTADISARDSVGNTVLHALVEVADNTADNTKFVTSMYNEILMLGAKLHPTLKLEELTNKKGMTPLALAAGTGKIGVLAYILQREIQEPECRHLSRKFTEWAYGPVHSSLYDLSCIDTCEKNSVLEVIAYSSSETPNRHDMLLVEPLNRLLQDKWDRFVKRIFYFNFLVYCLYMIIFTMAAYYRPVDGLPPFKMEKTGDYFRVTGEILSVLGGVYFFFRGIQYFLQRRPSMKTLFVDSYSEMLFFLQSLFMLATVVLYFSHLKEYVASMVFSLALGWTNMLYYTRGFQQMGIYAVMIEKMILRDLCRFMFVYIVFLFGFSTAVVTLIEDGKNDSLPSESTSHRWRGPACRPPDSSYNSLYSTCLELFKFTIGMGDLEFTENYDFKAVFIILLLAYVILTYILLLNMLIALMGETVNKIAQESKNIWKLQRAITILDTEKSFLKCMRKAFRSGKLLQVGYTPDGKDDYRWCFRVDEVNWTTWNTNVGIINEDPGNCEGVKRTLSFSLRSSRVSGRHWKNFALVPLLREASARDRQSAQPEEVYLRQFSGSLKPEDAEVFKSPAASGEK
#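 TRPV1-expressing cells were cultured overnight at 35.5C and loaded with Fluo-8 calcium dye for 40 to 90 min at room temperature. After a 10 s baseline, compound was added and calcium influx was read kinetically for 3 min (ex 480/em 520 nm).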
# PINK1 modulator – A Quantitative High throughput Screen to Identify Chemical Modulators of PINK1 Expression. PINK1 immunofluorescence, high-content cytometry, 24 h. Potency, µM (top dose mostly 76.6 µM), without a hit: at the highest dose activation (PINK1 increase), most hits filed as activators. actives 0.2% (n = 410,000). AID 624263, 2012; active = well fitted activation curve with a large enough effect; inconclusive = small, poorly fitted or top-dose-only effect; inactive = flat fitted curve, though single readings scatter; cell line not stated here;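 note: potency is the fitted concentration of half-maximal effect; % of control where 0% means no effect; nearly all actives have a fitted effect of over 65% in size; a mitochondrial uncoupler was the plate control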
#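 Stable cell line treated 24 h with compounds at 5 concentrations (CCCP controls), then fixed and immunostained for PINK1 plus nuclear and cell stains; PINK1 immunofluorescence quantified by laser-scanning microplate cytometry.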
# Sfp inh – qHTS Assay for Inhibitors of Bacillus subtilis Sfp phosphopantetheinyl transferase (PPTase); 4'-phosphopantetheinyl transferase ffp (Bacillus subtilis), Q9F4F7; Biochemical Sfp PPTase activity, qHTS; Potency, µM, for inactives: max response, negative = inhibition, hits mostly inhibitors; actives 3.5% (n = 310,000); AID 1490, 2009; active = well fitted inhibition curve with a large enough effect; inconclusive = small, poorly fitted or top-dose-only effect, or another doubt; inactive = no such curve, though single readings can be large or run the other way;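 note: the enzyme is Sfp with the accession as filed and its product quenches rhodamine fluorescence; potency is the fitted concentration of half-maximal effect; 0% = enzyme reaction without inhibitor and -100% = no enzyme wells; top concentration of the series not given in the record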
#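 Fluorescence-quenching assay with 15 nM Sfp, 5 uM rhodamine-CoA and 12.5 uM BHQ-2-labelled ybbR peptide in pH 7.6 Hepes/MgCl2 buffer. Enzyme was pre-incubated with compound for 15 min at room temperature. Rate was taken from the 30-min fluorescence change (525/598 nm).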
# D2 ag – Beta-Arrestin HTS for Positive Allosteric Modulators of the Human D2 Dopamine Receptor: Agonists; DiscoveRx PathHunter D2 beta-arrestin, luminescence, 90 min; 100% = 57 uM dopamine signal; activation, % (test concentration not listed); actives 0.084% (n = 360,000); in the data active = activation above about 40%; inconclusive = about 15% to 40%; inactive = below about 15%; note: compound concentration not given in the record; the text of the record calls up to 30% inactive
#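 Agonist mode: compounds alone added to overnight-plated D2 PathHunter cells for 90 min at 37 C, with 57 uM final dopamine (EC100) defining full response. Beta-arrestin recruitment detected by chemiluminescent reagent, read after 1 h at ambient temperature.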
# Six1-Eya2 blk – qHTS Assay for Inhibitors of the Six1/Eya2 Interaction | AID 651725, 2012 | AlphaScreen GST-Six1/His-Eya2 binding, biochemical; hits give low values; control for the full effect not named in the record | activity change, % (no concentration beside the values) | actives 0.56% (n = 360,000) | Homeobox protein SIX1 (Homo sapiens) + Protein phosphatase EYA2 (Homo sapiens), …; in the data active = activity change below about -65%; inconclusive = about -30% to -65%; inactive = above about -30%; note: % is set by controls: 0 for no effect and ±100 for the full control effect; compound concentration not given in the record
#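 Six1/Eya2 binding was read as AlphaScreen signal after compounds were pinned into GST-Six1 plus His-tagged Eya2 (5X stock 250/500 nM) in pH 8.0 Tris/NaCl/TCEP buffer, beads added, then incubated 1 h, 37 C, dark.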
# Starred values were filed as active, the others as inactive; ? = inconclusive; · = not tested or not shown; & = joins results of further samples; [ ] = dose if it differs, or a comment.
item	smiles	CtBP-E1A inh	D2 PAM	TRPV1 potentiator	PINK1 modulator	Sfp inh	D2 ag	Six1-Eya2 blk
1	O=C(COc1ccccc1)Nc1nc(-c2cccnc2)cs1	-2	0	3	1.3%	·	2.2	-4
2	NS(=O)(=O)c1ccc(NC(=O)CSc2nnc3n2CCCCC3)cc1	·	-11	·	0.1%	·	-4.2	12
3	O=C1C=CC(=Nc2cccc3c2C(=O)c2ccccc2-3)O1	-3	-5	·	-0.7%	·	-1.2	-14
4	C#CCNC(=O)C1=C[C@H](C(C)(C)C)C[C@H](OCCCCO)O1	0	-12	·	2.0%	·	-1.8	4
5	CCn1c(C)cc(C(=O)COC(=O)c2ccccc2[N+](=O)[O-])c1C	1	-13	·	-0.2%	·	-2.9	-29
6	CCOC(=O)c1cc2c(nc1NC(=S)Nc1ccccc1)CC(C)(C)OC2	-3	-3	3	-1.7%	20%	-2.9	5
7	O=C(C1CCCN(S(=O)(=O)c2cnc[nH]2)C1)N1CC(=O)N(CCc2ccccc2)C(=O)C1 (stereo not given)	25	-3	7	0.1%	20%	-0.3	10
8	CC(C)(CNC(=O)c1ccc(NS(=O)(=O)c2ccc(F)c(F)c2)cc1)N1CCOCC1	13	-15	17	-0.3%	·	-3.7	3
9	Cc1snc(SCc2cccc(Cl)c2)c1C#N	60	0	-1	6.0%	2%	-1.3	24
10	Clc1ccc(/C=N/Nc2ccccn2)cc1	1	-8	-13	-1.3%	5%	0.1	1
11	Cn1cc(/C=C(\NC(=O)c2ccccc2Cl)C(=O)NCCCN2CCOCC2)c2ccccc21	0	-12	22	-1.2%	6%	-0.1	16
12	COc1ccc(Cn2cc(CN3CC(N4CCCC4)CS3(=O)=O)nn2)cc1 (stereo not given)	5	·	·	-0.7%	·	·	1
13	C[C@@H]1COC(=O)[C@@H](NC(=O)OCC2c3ccccc3-c3ccccc32)C/C=C\C[C@@H](CC(=O)N(CCO)Cc2ccccc2)C(=O)N1	0	-10	·	-1.3%	·	-3.4	-3
14	Cc1cc(C(=O)CSc2nnc(-c3ccco3)o2)c(C)n1C	-9	1	·	4.4%	·	-4.6	11
15	COc1cc(S(=O)(=O)N2CCN(c3ccccc3F)CC2)c(OC)cc1Cl	-4	8	-4	-0.3%	22%	-1.6	2
16	CC(C)Oc1ccc(CN2CCC(n3nccc3NC(=O)CCc3ccccc3)CC2)cc1	-14	-31	2	-0.8%	-6%	-5.0	-1
17	Cc1cccc(N2CCN(C(=O)CN3C(=O)C4CC=CCC4C3=O)CC2)c1C (stereo not given)	2	-1	4	1.2%	10%	-3.8	3
18	O=C(CNCc1cccc2ccccc12)Nc1ccccc1[N+](=O)[O-]	?	-31	-16	-0.9%	-8%	-4.4	0
19	COc1ccc(/C=C(\C#N)C(=O)Nc2cccc3ncccc23)cc1OC	·	-7	0	-0.2%	-3%	0.5	-19
20	CCc1ccc2c(c1)C(c1ccc([N+](=O)[O-])cc1)=NNC(c1ccc(C)cc1)=N2	-10	-32	1	16%	18%	-2.1	-4
21	O=C(COC(=O)c1ccccc1NCCO)NCc1cccs1	5	-14	9	-2.1%	·	-0.7	7
22	C=CCn1c(SCc2nc(N)nc(N3CCCCC3)n2)nnc1-c1ccco1	6	-22	7	·	1%	-1.3	-1
23	C[C@H](CO)N1C[C@H](C)[C@@H](CN(C)S(=O)(=O)c2ccc(-n3cccn3)cc2)OCc2cnnn2CCCC1=O	7	1	·	-0.7%	·	-2.4	4
24	CC(Sc1nnnn1C)C(=O)Nc1ccc(N2CCOCC2)cc1 (stereo not given)	-11	19	-2	1.4%	2%	-4.6	-10
25	COC(=O)c1c(C)[nH]c(-c2csc(N)n2)c1C	-1	-1	7	0.5%	45µM*	1.1	11

# 10 entries from above in a different format:
[15] COc1cc(S(=O)(=O)N2CCN(c3ccccc3F)CC2)c(OC)cc1Cl
[16] CC(C)Oc1ccc(CN2CCC(n3nccc3NC(=O)CCc3ccccc3)CC2)cc1
[17] Cc1cccc(N2CCN(C(=O)CN3C(=O)C4CC=CCC4C3=O)CC2)c1C (stereo not given)
[18] O=C(CNCc1cccc2ccccc12)Nc1ccccc1[N+](=O)[O-]
[19] COc1ccc(/C=C(\C#N)C(=O)Nc2cccc3ncccc23)cc1OC
[20] CCc1ccc2c(c1)C(c1ccc([N+](=O)[O-])cc1)=NNC(c1ccc(C)cc1)=N2
[21] O=C(COC(=O)c1ccccc1NCCO)NCc1cccs1
[22] C=CCn1c(SCc2nc(N)nc(N3CCCCC3)n2)nnc1-c1ccco1

Screen / compound no.,15,16,17,18,19,20,21,22
CtBP-E1A inh,-4,-14,2,?,·,-10,5,6
D2 PAM,8,-31,-1,-31,-7,-32,-14,-22
TRPV1 potentiator,-4,2,4,-16,0,1,9,7
PINK1 modulator,-0.3%,-0.8%,1.2%,-0.9%,-0.2%,16%,-2.1%,·
Sfp inh,22%,-6%,10%,-8%,-3%,18%,·,1%
D2 ag,-1.6,-5.0,-3.8,-4.4,0.5,-2.1,-0.7,-1.3
Six1-Eya2 blk,2,-1,3,0,-19,-4,7,-1

[23] C[C@H](CO)N1C[C@H](C)[C@@H](CN(C)S(=O)(=O)c2ccc(-n3cccn3)cc2)OCc2cnnn2CCCC1=O
[24] CC(Sc1nnnn1C)C(=O)Nc1ccc(N2CCOCC2)cc1 (stereo not given)

Screen / compound no.,23,24
CtBP-E1A inh,7,-11
D2 PAM,1,19
TRPV1 potentiator,·,-2
PINK1 modulator,-0.7%,1.4%
Sfp inh,·,2%
D2 ag,-2.4,-4.6
Six1-Eya2 blk,4,-10

# Further results follow:
item	smiles	CtBP-E1A inh	D2 PAM	TRPV1 potentiator	PINK1 modulator	Sfp inh	D2 ag	Six1-Eya2 blk
26	C=CCNc1ncnc2c1ncn2[C@H]1CN(Cc2ccc(-c3ccccc3)cc2)C[C@@H](CO)O1	-5	1	·	-0.6%	·	2.7	-10
27	Cn1cccc1/C=N/n1c(-c2ccc(Cl)cc2Cl)n[nH]c1=S	-9	-14	6	-1.5%	-10%	-5.8	-22
28	O=C(c1cccc(NS(=O)(=O)c2ccc(F)c(F)c2)c1)N1CCCCC1	4	10	-21	1.6%	·	-3.2	0
29	Cc1ncc(CN2CCCC(C(=O)Nc3ccc(-c4ccco4)cc3)C2)n1C (stereo not given)	0	-37	-10	2.7%	13%	-4.3	-20
30	O=C1c2ccccc2C(Nc2ccc3c(c2)OCCO3)N1Cc1ccco1 (stereo not given)	-12	8	12	0.2%	?	?	-27
31	COc1ccc(OCc2nnc(SCC(=O)Nc3cccc(Cl)c3)o2)cc1	4	-1	0	-1.4%	13%	-4.0	-5
32	COc1cccc(NC(=O)COC(=O)c2c(NC(C)=O)sc(C)c2C)c1	1	-2	6	7.8%	·	-0.1	8
33	Brc1ccc(-c2cnco2)cc1	2	1	4	1.7%	13%	-0.5	18
34	N#CC1=C(N)NC(SCc2ccc(Br)cc2)=C(C#N)C12CCCCC2	-21	-4	3	?	10%	4.2	18
35	CCC(=O)Oc1ccc(C/C(=N\O)c2ccc(O)cc2O)o1	-5	18	2	?	-18%	4.4	-9
36	COc1cccc(N2CCN(C(=O)c3cc4c(=O)n(Cc5ccccc5)ccc4nc3C)CC2)c1	-7	18	16	0.7%&1.6%	-11%	-0.8	1
37	Cc1ccccc1NC(=O)NCCN1C(=O)C2C3C=CC(C3)C2C1=O (stereo not given)	0	-5	?	1.4%	7%	-5.1	8
38	Cc1ccc([N+](=O)[O-])cc1S(=O)(=O)N1CCC(C)CC1	·	2	-7	0.9%	-1%	2.0	-6
39	Cc1cc(C(=O)NCC(=O)OCC(=O)N(C2CCCCC2)C2CCCCC2)ccc1[N+](=O)[O-]	-10	-17	-5	2.0%	-7%	-1.9	-13
40	COc1ccccc1NC(=O)COC(=O)COc1ccccc1F	·	1	4	1.1%	·	-1.8	6
41	Cc1ccc(C)c(S(=O)(=O)N2CCN(CC(=O)Nc3ccc([N+](=O)[O-])cc3)CC2)c1	-10	-24	-4	1.1%	26%	-0.5	-19
42	CC(CC(=O)O)CC(=O)N1CCN(S(=O)(=O)c2cccs2)CC1 (stereo not given)	11	-1	9	-0.5%	7%	-4.9	8
43	COc1ccc(S(=O)(=O)NCCc2ccccn2)cc1	8	-2	·	1.7%	·	?	9
44	O=C(/C=C/c1ccccc1Cl)OCC(=O)N1CCCC1	8	-29	·	-0.1%	·	0.7	10
45	COc1cccc(NC(=O)COC(=O)c2nc3nccc(C)n3n2)c1	3	-7	9	11%[38.3 µM]	9%	-2.0	1
46	CCOC(=O)C1Nc2ccccc2C2c3ccccc3CC12 (stereo not given)	-3	-45	·	0.2%	·	1.9	-19
47	Cn1c(SCC(=O)NC2CC2)nnc1-c1ccccc1Cl	1	-5	5	1.8%	9%	-4.0	-4
48	CCn1c(CSc2nc(C)cc(C)n2)nnc1SCC(=O)Nc1cccc2ccccc12	-13	0	7	-1.9%[38.3 µM]	5%	-0.5	-2
49	CC(=O)c1c(C)[nH]c(C(=O)NC2CCCCC2)c1C	5	-21	1	-1.2%	0%	-2.3	-10
50	COc1ccc(OC)c(S(=O)(=O)Nc2cc(C)on2)c1	8	-6	-5	0.1%	7%	3.5	4
51	COc1cc(CNCc2cccc3ccccc23)cc(OC)c1	·	-59	-27	?	-10%	0.1	-27
52	Cc1ccccc1-c1nc(CS(=O)CC(=O)NCCN2CCN(Cc3ccccc3)CC2)c(C)o1 (stereo not given)	28	3	16	3.1%[38.3 µM]	15%	-0.3	20
